# Screens deposited in PubChem BioAssay by several laboratories.
# BJeLR lethal: BJeLR cell viability loss | BJeLR (HRASV12) viability, CellTiter-Glo ATP luminescence, 48 h; reference of the scale not given here | inhibition, % (test concentration not listed) | 300,000 compounds, 0.17% hits;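 active means replicate mean above 50%; inconclusive means above 50% but judged a plate artefact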;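 further: 50 nL library stock added to about 25 µL; numbers are from one replicate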
# PrP UTR inh: suppresses PrP 5' UTR mRNA reporter expression; cell-based PrP 5' UTR mRNA reporter, plate reader; inhibition, % (test concentration not listed); 340,000 compounds, 0.35% hits;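 active means every replicate at 50% or more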;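 further: 0 = median of the neutral control wells; tested in H4 reporter cells; numbers are from one replicate; inactives centre near -14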
# Autofluor counter: flagged as autofluorescent in microsphere protease counterscreen; 360,000 compounds, 3.1% hits; compound autofluorescence counterscreen, microsphere flow cytometry; stronger effect = higher value; fluorescence intensity (test concentration not listed);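 active means at least 3 SD above the mean of all compounds, about 16000 in these data; inconclusive means too few beads counted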;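 further: 100 nL of 1 mM stock went into each well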
# Sa ugtP lethal: growth inhibition of S. aureus ugtP deletion strain; S. aureus RN4220 ugtP deletion, OD600 growth, 16 h; some inactives read as strong as hits; growth inhibition, % (test concentration not listed); 330,000 compounds, 0.54% hits; AID 1259309;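 active means z-score under -3 and OD600 up to 0.15 on both plates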;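 further: plate controls were untreated wells for no effect and antibiotic for full effect; wells of about 80 µL received 100 nL stock; the first replicate is given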
# Mtb hypoxia inh: inhibitors of hypoxia-regulated fluorescent reporter in Mycobacterium tuberculosis; M. tuberculosis hypoxia-regulated fluorescent reporter, fluorescence; fluorescence inhibition, % (no concentration beside the values); 300,000 compounds, 0.1% hits; AID 1159583;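 active means 35 to 45% if threefold the growth effect, above 45% if 1.5-fold the growth effect; inactive means the rest, general growth blockers included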;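 further: wells of about 50 µL received 100 nL stock; 0% = vehicle wells and 100% = reference inhibitor wells; whole bacteria with a GFP reporter of the hypoxia response; strong numbers were not always called active; many hits fall short of the cut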
# Sa RN4220 lethal: kills Staphylococcus aureus RN4220 | S. aureus RN4220 growth, OD600, 16 h | inhibition, % (test concentration not listed) | 330,000 compounds, 0.33% hits | AID 1259311;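 active means z-score of -3 or lower and OD600 up to 0.18 on both plates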;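 further: plate controls were untreated cells for no effect and reference antibiotic for full effect; stock transfer was 100 nL into about 80 µL; one replicate is shown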
# Mtb hypoxia inh growth: further read-out of Mtb hypoxia inh, marked with its call; growth inhibition, %; measured here: M. tuberculosis growth (absorbance);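 0% = vehicle and 100% = reference antibiotic; read after six days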
# * = called active by the depositor; ? = inconclusive; . = no result given.
SMILES,BJeLR lethal,PrP UTR inh,Autofluor counter,Sa ugtP lethal,Mtb hypoxia inh,Mtb hypoxia inh growth,Sa RN4220 lethal
CC(C)NC(=O)N(C)C[C@H]1Oc2ccc(NC(=O)Nc3ccc4c(c3)OCO4)cc2C(=O)N([C@H](C)CO)C[C@@H]1C,.,-9,3821,3,4,1,-14
COc1cc(C=NNC(N)=O)ccc1OCC(=O)N1C(C)CCCC1C (centres undefined),.,.,.,-3,4,-2,1.4
CN(Cc1nc(-c2cnccn2)no1)Cc1n[nH]c2c1CCCCC2,-4,-13,6195,6,5,7,-0.5
CN(Cc1cccc(-n2cccn2)c1)Cc1cn(C)nc1-c1ccccc1F,2,-5,2588,10,7,1,5.6
CC(=O)OC(COc1ccc(F)cc1)Cn1cnc2ccccc21 (centres undefined),3,-19,4230,-3,-2,4,3.3
O=C(Nc1ncccc1O)c1ccc(Cl)c(S(=O)(=O)N2CCCCCC2)c1,8,-17,?,-4,-2,1,3.6
c1cc2c3c(cccc3c1)NC1(CCCCCC1)N2,1,-16,1873,-23,-91,-30,2.1
Cc1cc[n+]2n1CC(O)C2 (centres undefined),3,-28,4335,1,-5,0,-1.1
Cc1cc(C)cc(NC(=S)N=Nc2c(O)n(C)c3ccc(S(=O)(=O)N4CCOCC4)cc23)c1,0,27,1933,-3,6,5,4.6
CCOC(=O)C1=C(CC)Nc2ccccc2N=C1NC(=O)Cn1cnc2ccccc2c1=O,10,-63,8035,-4,-12,-2,0.4
O=C(Nc1ccc(Br)c2ccccc12)c1ccc2ccccc2c1O,0,-32,3534,.,.,.,.
Cc1cc(-c2nn(-c3ccccc3F)cc2CNCCc2cnc[nH]2)c(C)s1,-7,-17,4612,-1,0,12,1.2
O=C(O)CCC(=NNC(=O)c1cn(-c2ccccc2)nc1-c1ccccc1)C(=O)O,.,.,.,1,2,-4,4.0
COc1ccc(-c2nc(CS(=O)(=O)CC(=O)NCc3cccc(F)c3)c(C)o2)cc1,-14,-3,4330,2,9,5,-5.7
Cc1cc(C)cc(Nc2ccc([N+](=O)[O-])nc2[N+](=O)[O-])c1,-10,-33,6664,78,-22,13,25
CCOc1ccc(-c2c(C(=O)NN=C(C)c3ccncc3)nnn2-c2nonc2N)cc1,.,.,.,3,8,1,4.2
O=C(N/N=C1\CCCc2ccccc21)C(O)c1ccccc1 (centres undefined),10,-7,9106,.,.,.,.
CCN(CCCNC(=O)CCCn1c(=O)[nH]c2ccccc2c1=O)c1cccc(C)c1,6,-38,8479,-3,0,5,3.4
Cc1cc(N2C(=O)C(O)=C(C(=O)c3cc4ccccc4o3)C2c2cccc(Cl)c2)no1 (centres undefined),-14,3,5862,.,.,.,.
CC(=O)N1C(=O)C2(Nc3ccccc3N2)c2ccccc21,1,11,5895,-3,.,.,3.6
CCOc1ccc(NC(=O)N2CCC(NC(=O)C(Cc3ccccc3OC)NC(C)=O)CC2)cc1 (centres undefined),-1,-39,3099,5,17,3,2.8
CCN(Cc1ccccc1)C(=O)CCS(=O)(=O)c1ccc2c(c1)oc(=O)n2C,-8,-12,5220,-5,-1,13,-1.5
Cc1cnc(C(=O)OCC(=O)NC23CC4CC(CC(C4)C2)C3)cn1,-16,-13,20090*,-1,2,8,0.1
COc1ccc(Cc2nnc3n2N=C(c2cc4ccccc4o2)CS3)cc1OC,2,7,3172,-8,5,10,-0.2
O=C(Nc1ccc2[nH]ncc2c1)c1ccccc1Cl,1,-31,3831,0,3,6,1.1

# Overlap with the part before: 2 entries, then new ones.
SMILES,BJeLR lethal,PrP UTR inh,Autofluor counter,Sa ugtP lethal,Mtb hypoxia inh,Mtb hypoxia inh growth,Sa RN4220 lethal
COc1ccc(Cc2nnc3n2N=C(c2cc4ccccc4o2)CS3)cc1OC,2,7,3172,-8,5,10,-0.2
O=C(Nc1ccc2[nH]ncc2c1)c1ccccc1Cl,1,-31,3831,0,3,6,1.1
Oc1cccc2ccc(Nc3ccccn3)nc12,-1,17,11243,29,16,22,20
CCN(CC)c1nc(C)nc2c1sc(=S)n2C,-7,-12,4856,.,.,.,.
CC(C)c1ccc(CNC(=O)C(=O)NCC2CCCO2)cc1 (centres undefined),4,-18,4469,6,20,8,3.1
NC(=O)c1ccc(NC(=O)CSc2nnc(-c3ccncc3)n2Cc2ccco2)cc1,-3,.,6122,10,14,-2,5.0
Cc1ccc(NC(=O)c2ccc(NCCCN3CCC(C)CC3)c([N+](=O)[O-])c2)cc1F,-2,-29,3405,20,9,14,-2.8
COc1ccccc1-n1c(=S)[nH]c2c(sc(=S)n2-c2ccc(C)cc2C)c1=O,-4,-15,3531,2,0,1,0.9
C=CCc1cc(/C=C2/NC(=S)NC2=O)cc(OC)c1O,-1,-8,2082,4,.,.,6.0
O=C(CCNS(=O)(=O)c1ccc(OC(F)(F)F)cc1)NCCc1c[nH]c2ccccc12,.,-35,3672,-11,-8,0,4.3
O=C(CN1C(=O)c2ccccc2S1(=O)=O)Nc1ccccc1,5,-8,10464,3,4,6,5.4
Cc1cc(C)c(NC(=O)CN2C(=O)NC3(CCCc4ccccc43)C2=O)c(Cl)c1 (centres undefined),-3,-28,?,3,4,3,2.2
Cc1ccc(Nc2ccc([N+](=O)[O-])ccc2=O)cc1,-7,-8,?,2,-3,5,3.5
Cc1ccsc1C1C(C#N)=C(N)OC2=C1C(=O)CC(C)(C)C2 (centres undefined),1,-4,3365,6,8,8,6.4
O=C1NC(SCCCF)=N/C1=C/c1ccc(-n2cncn2)cc1,-6,-21,5175,10,16,-3,4.0
CCOc1ccc(-n2ccnc(SCC(=O)NCCc3ccccc3)c2=O)cc1,-2,-20,4694,6,-10,2,0.2
Cc1ccc(S(=O)(=O)N2CCN(C(=O)N(c3ccccc3)c3ccccc3)CC2)cc1,6,-16,7963,12,9,7,7.2
O=C1CCC(=O)N1CN(Cc1ccco1)CN1C(=O)CCC1=O,.,1,3307,-6,.,.,-4.0
CCOC(=O)c1sc(N2C(=O)C(O)=C(C(=O)c3ccc(C)o3)C2c2cccc([N+](=O)[O-])c2)nc1C (centres undefined),-11,-2,4977,4,7,2,-7.6
Cn1c(=O)c2c(O)cc(=O)[nH]c2n(-c2ccccc2)c1=O,-6,6,3964,6,.,.,3.2
O=C(CCc1nnc(Cc2ccc(-c3ccccc3)cc2)o1)NCCc1ccccn1,0,-13,3358,-4,-2,1,-4.3
O=C(NC(NCC1CCCO1)C(Cl)(Cl)Cl)c1cccc2ccccc12 (centres undefined),3,3,6780,2,4,6,2.3
Cc1ccn2c(=O)nc(SCC(=O)N3CCCc4ccccc43)nc2c1,-5,5,5726,1,-7,5,1.9
COc1ccc(OCCNc2c([N+](=O)[O-])c(=O)oc3ccccc23)cc1,5,-6,4429,6,3,2,4.3
O=C(C1=C[C@H](c2csc3ccccc23)C[C@H](OCCCCO)O1)N1CCOCC1,13,-47,4227,.,.,.,.
COc1cc2c(c(OCC(=O)NC(C)C)c1)C(=O)O[C@@H](C)CCCC(=O)CCCCC2,2,-17,3151,4,-4,-11,1.5
CC(C)[N+](C)(CCOC(=O)C1c2ccccc2Oc2ccccc21)C(C)C,-16,27,5540,3,-4,7,2.1
# The results go on.
SMILES,BJeLR lethal,PrP UTR inh,Autofluor counter,Sa ugtP lethal,Mtb hypoxia inh,Mtb hypoxia inh growth,Sa RN4220 lethal
O=C(CCCCCNc1nc(=S)[nH]c2ccccc12)NCCC1=CCCCC1,2,-19,3851,0,-8,7,1.1
O=C1Nc2ccc(Br)cc2C12NNc1ccccc1O2 (centres undefined),-17,-65,4049,97*,2,-7,85
COC(=O)[C@@H]1C[C@@]2(O)[C@@H](O)[C@@H](O)[C@@H](O)C[C@H]2N1Cc1ccc(C(F)(F)F)cc1,-4,-17,3422,.,.,.,.
CN(C(=O)COC(=O)c1ccccc1Cc1ccccc1)C1CCS(=O)(=O)C1 (centres undefined),7,-76,5439,-4,-5,0,5.1
Cc1ccc(C)c(C2C(C#N)=C(N)Oc3cc(C)oc(=O)c32)c1 (centres undefined),-3,-38,1935,14,8,12,2.0
OCC1(Cc2ccccc2)CCN(Cc2cc3ccccc3o2)CC1,0,75*,4718,15,13,9,2.5
CS(=O)(=O)c1ccccc1C(=O)N(CCC1=CCCCC1)c1c(N)n(Cc2ccccc2)c(=O)[nH]c1=O,3,-7,6844,-4,-11,0,-0.6
CCC(=O)NC(NC(=S)Nc1cccc2cccnc12)C(Cl)(Cl)Cl (centres undefined),-10,-11,2755,-4,10,-4,-3.4
COc1ccc(/C=C/C(=O)OCC(=O)Nc2ccc3[nH]c(=O)[nH]c3c2)cc1OC,-5,-3,5903,4,-13,0,2.2
Cc1ccc(C(=O)NC(=S)Nc2ccc3[nH]c(=O)[nH]c3c2)c(C)c1,-2,-14,4398,1,1,5,1.5
NS(=O)(=O)c1cccc(NC(=O)COC(=O)C2CCCCC2)c1,.,-26,2493,-10,1,-2,-4.2
Cc1ccc(NC2=C(Cl)C(=O)OC2OC(C)C)c(C)c1 (centres undefined),8,-14,2085,-8,-1,10,-2.8
Cn1nc(C(F)(F)F)c(C(=O)Nc2ccc(F)cc2F)c1Sc1ccc(Cl)cc1,-9,-23,5044,-5,7,8,3.9
CCC(=O)N1CCN(c2ccccc2NC(=O)COc2ccccc2Cl)CC1,-5,-23,5749,2,8,-9,4.3

# Exported tab-delimited: part of the list above.
smiles	BJeLR lethal	PrP UTR inh	Autofluor counter	Sa ugtP lethal	Mtb hypoxia inh	Mtb hypoxia inh growth	Sa RN4220 lethal
COc1cc2c(c(OCC(=O)NC(C)C)c1)C(=O)O[C@@H](C)CCCC(=O)CCCCC2	2	-17	3151	4	-4	-11	1.5
CC(C)[N+](C)(CCOC(=O)C1c2ccccc2Oc2ccccc21)C(C)C	-16	27	5540	3	-4	7	2.1
O=C(CCCCCNc1nc(=S)[nH]c2ccccc12)NCCC1=CCCCC1	2	-19	3851	0	-8	7	1.1
O=C1Nc2ccc(Br)cc2C12NNc1ccccc1O2 (centres undefined)	-17	-65	4049	97*	2	-7	85
COC(=O)[C@@H]1C[C@@]2(O)[C@@H](O)[C@@H](O)[C@@H](O)C[C@H]2N1Cc1ccc(C(F)(F)F)cc1	-4	-17	3422	.	.	.	.
CN(C(=O)COC(=O)c1ccccc1Cc1ccccc1)C1CCS(=O)(=O)C1 (centres undefined)	7	-76	5439	-4	-5	0	5.1
Cc1ccc(C)c(C2C(C#N)=C(N)Oc3cc(C)oc(=O)c32)c1 (centres undefined)	-3	-38	1935	14	8	12	2.0
OCC1(Cc2ccccc2)CCN(Cc2cc3ccccc3o2)CC1	0	75*	4718	15	13	9	2.5
CS(=O)(=O)c1ccccc1C(=O)N(CCC1=CCCCC1)c1c(N)n(Cc2ccccc2)c(=O)[nH]c1=O	3	-7	6844	-4	-11	0	-0.6
CCC(=O)NC(NC(=S)Nc1cccc2cccnc12)C(Cl)(Cl)Cl (centres undefined)	-10	-11	2755	-4	10	-4	-3.4
COc1ccc(/C=C/C(=O)OCC(=O)Nc2ccc3[nH]c(=O)[nH]c3c2)cc1OC	-5	-3	5903	4	-13	0	2.2
Cc1ccc(C(=O)NC(=S)Nc2ccc3[nH]c(=O)[nH]c3c2)c(C)c1	-2	-14	4398	1	1	5	1.5
NS(=O)(=O)c1cccc(NC(=O)COC(=O)C2CCCCC2)c1	.	-26	2493	-10	1	-2	-4.2

# An unsorted share of the library (roughly 3.9% active in at least one column).
